From PubChem
BJeLR lethal: MLPCN primary cell-based screen for lethality selective to Ras in HRASV12 cells | BJeLR (HRASV12) viability, CellTiter-Glo ATP luminescence, 48 h; reference of the scale not given here | inhibition, % (concentration not given with the values) | 300,000 compounds, 0.17% hits;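 active = replicate mean above 50%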;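 note: 50 nL library stock added to about 25 µL; numbers are from one replicate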
Mtb hypoxia inh: PubChem AID 1159583; fluorescence inhibition, % (no concentration beside the values); M. tuberculosis hypoxia-regulated fluorescent reporter, fluorescence; 300,000 compounds, 0.1% hits;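 active = 35 to 45% if threefold the growth effect, above 45% if 1.5-fold the growth effect; inactive = the rest, general growth blockers included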;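 note: wells of about 50 µL received 100 nL stock; 0% = vehicle wells and 100% = reference inhibitor wells; whole bacteria with a GFP reporter of the hypoxia response; strong numbers were not always called active; many hits fall short of the cut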
Sa ugtP lethal: growth inhibition of ugtP-null S. aureus, primary screen, RN4220 ugtP deletion, OD600 | 16 h; some inactives read as strong as hits | growth inhibition, % (no concentration beside the values) | 330,000 compounds, 0.54% hits;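 active = z-score under -3 and OD600 up to 0.15 on both plates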;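 note: plate controls were untreated wells for no effect and antibiotic for full effect; wells of about 80 µL received 100 nL stock; the first replicate is given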
RN4220 kill: growth inhibition of S. aureus RN4220, primary screen, OD600 | 16 h | inhibition, % (test concentration not listed) | 330,000 compounds, 0.33% hits | AID 1259311, 2017;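 active = z-score of -3 or lower and OD600 up to 0.18 on both plates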;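 note: plate controls were untreated cells for no effect and reference antibiotic for full effect; stock transfer was 100 nL into about 80 µL; one replicate is shown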
PrP 5UTR inh: inhibition of PrP 5' UTR reporter expression | cell-based PrP 5' UTR mRNA reporter, plate reader | inhibition, % (no concentration beside the values) | 340,000 compounds, 0.35% hits;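 active = every replicate at 50% or more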;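 note: 0 = median of the neutral control wells; tested in H4 reporter cells; numbers are from one replicate; inactives centre near -14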
Autofluor counter: flagged as autofluorescent in microsphere protease counterscreen. compound autofluorescence counterscreen, microsphere flow cytometry; hits give high values. fluorescence intensity (concentration not given with the values). 360,000 compounds, 3.1% hits;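 active = at least 3 SD above the mean of all compounds, about 16000 in these data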;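 note: 100 nL of 1 mM stock went into each well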
Mtb hypoxia inh growth: also measured in Mtb hypoxia inh; calls as there; growth inhibition, %; measured here: M. tuberculosis growth (absorbance);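 0% = vehicle and 100% = reference antibiotic; read after six days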
An asterisk follows results filed as active; . = not tested or not shown.

SMILES	BJeLR lethal	Mtb hypoxia inh	Mtb hypoxia inh growth	Sa ugtP lethal	RN4220 kill	PrP 5UTR inh	Autofluor counter
CCN(CC)c1c2c(c(C#N)c3nc4ccccc4n13)CCC2	5	0	-4	7	5.4	-11	16264*
CC[C@@]12C(=O)N(c3ccc(C)cc3)C(=O)N1[C@H](c1cccc(C)c1)[C@@H]1C(=O)N(Cc3ccccc3)C(=O)[C@@H]12	6	.	.	.	.	-6	3857
COc1cc(NC(=S)Nc2ccccn2)c(OC)cc1Cl	4	-13	-1	-1	5.2	-12	2252
Cc1cc(C)cc(NC(=O)c2ccc3c(c2)CCN3S(C)(=O)=O)c1	0	2	-3	5	2.2	-12	3455
O=C(CCc1ccccc1)NNC(=O)Nc1ccc(Cl)cc1	0	11	11	4	-1.3	-8	3839
Cn1c(CNC(=O)CNC(=O)Cc2ccc(F)cc2)cc(=O)n(C)c1=O	-3	11	7	2	1.5	-18	5352
COc1ccc(C(=O)NC(C(=O)NCc2ccccc2OC)C(C)C)cc1 (configuration not stated)	11	1	13	2	0.9	-27	4484
CCOC(=O)Cc1csc(NC(=O)c2ccc(C)cc2)n1	3	16	3	2	2.0	20	4198
CC(CC(C)C)=NNc1ccc(S(N)(=O)=O)cc1[N+](=O)[O-]	.	17	13	5	8.2	.	.
CCC(=O)NC(=S)Nc1ccc(NC(=O)c2ccco2)cc1	-8	.	.	25	2.8	-36	2924
CC(OC(=O)C1CC2CCCC(C1)C2=O)C(=O)Nc1cccc([N+](=O)[O-])c1 (configuration not stated)	.	22	38	9	5.1	-18	3152
COc1cccc(CN2CC(C(=O)N3CCCO3)CCC2=O)c1 (configuration not stated)	-4	5	6	5	3.0	1	5769
CCN1C(=O)C(O)(CC(=O)c2c(C)coc2C)c2ccccc21 (configuration not stated)	-2	-1	-2	1	4.3	-70	4173
CCOC(=O)CC(=O)Nc1ccc(C(=O)OCC)cc1	-3	.	.	0	1.6	-5	4186
O=C(NCCN1CCCCC1)Nc1cccc(Cl)c1Cl	-4	12	2	9	0.4	4	3239
CC1CCN(C(=O)c2ccc(NC(=O)C3CCCO3)cc2)CC1 (configuration not stated)	6	3	9	1	1.8	-5	9129
N#Cc1ccc(C(=O)NNC(=O)c2ccncc2)cc1	-2	-5	-3	3	5.4	-23	3861
Cc1nc2ccc(NC(=O)N3CCSCC3)cc2s1	-1	.	.	4	-1.2	-18	2368
CC(=NCc1cccc(Cl)c1)c1nc(-c2ccco2)oc1O	-13	-1	9	-7	6.1	-26	2435
CCN1CCN(/C=N/c2nc3c(s2)CCCC3)CC1	-2	.	.	.	.	44	10364
CS(=O)(=O)N(CC(=O)N1CCc2ccccc2C1)Cc1ccc(Cl)cc1	-4	6	10	0	4.7	-3	11292
COc1cc(-c2n[nH]c(=S)n2-c2cccc(C(F)(F)F)c2)cc(OC)c1OC	-5	2	1	0	0.9	-6	7144
CCCCc1nc(NCCN2CCOCC2)c(C#N)c2c1COC(C)(C)C2	5	-3	5	5	0.7	-11	3295
CC(C)c1nnc(NC(=O)C2CCCN(C(=O)Nc3ccc(F)cc3)C2)s1 (configuration not stated)	-6	4	3	-5	1.6	-23	5707
CCN(CC(=O)Nc1ccc(OC)cc1)C(=O)c1ccc2c(c1)NC(=O)CS2	.	7	-8	2	0.7	-7	5413
CCN1C(=O)CSc2ccc(C(=O)NCc3ccccc3OC)cc21	0	-1	1	1	8.0	.	11492
O=C(NCC1CCCO1)c1cn(Cc2ccccc2)nc1-c1ccc(Cl)cc1 (configuration not stated)	.	5	11	3	0.4	0	8847
O=C(CCCOc1cccc(Br)c1)NCCOc1ccccc1	-5	7	4	6	1.4	-14	5115
NC(Cc1ccccc1)c1nc(-c2ccccc2)no1 (configuration not stated)	-1	-3	-4	-12	-0.3	-23	3604
CSc1cccc(NC(=O)c2c(Cl)cnn2C)c1	8	0	1	-3	1.4	-11	13075
CN1CCN(c2ccc(S(=O)(=O)N3CCOCC3)cc2)CC1	-15	3	0	7	2.3	-7	4115
Cc1cccc(NS(=O)(=O)c2cccc3nsnc23)c1	0	.	.	1	10	-12	2871
Cc1nc2ccccc2c(=O)n1/N=C/c1ccc(N(C)C)cc1	0	.	.	.	.	-31	7720
CCNc1c([N+](=O)[O-])c(=O)oc2ccccc12	3	4	6	2	2.0	-25	4343
Cc1ccc(S(=O)(=O)NCc2cccnc2)cc1C	5	6	21	0	3.1	-9	3576
c1ccc2nc3c(nc2c1)[nH]c1ccccc13	-4	7	5	5	2.8	-101	3719
Cn1c(=O)c2c(nc(CN3CCN(CCO)CC3)n2Cc2ccccc2Cl)n(C)c1=O	-5	9	8	-1	-8.4	-28	4788
CCOC(=O)/C(C#N)=C/N1CCOCC1	2	5	-7	6	0.7	-35	3770
Cc1ccc(CNC(=O)CCS(=O)(=O)c2cccc3nonc23)cc1	3	13	11	2	1.0	-13	9387
Cc1c(C(=O)O)cccc1-n1c(C)cc(/C=C(/C#N)C(=O)NCc2ccccc2)c1C	1	-10	1	16	-2.4	-16	4221
O=C(O)c1ccc(-c2ccc(O)c(F)c2)cc1	-4	.	.	.	.	0	4308
Cc1ccc2c(c1)C1C(CO2)C(c2ccccc2)[C@]2(C)C(=O)Nc3cc(Cl)ccc3C(=O)N12 (some centres not stated)	.	-3	3	5	-6.0	.	.
CCCOc1cccc(-c2cc(C(=O)NN=Cc3ccccn3)c3ccccc3n2)c1	.	-7	-3	3	2.9	.	.
COc1cc(NC(=S)N2CCN(c3ccccn3)CC2)cc(OC)c1	-9	6	9	13	5.5	-4	1997
CN(C)S(=O)(=O)c1cccc(COc2ncnc3c(Cl)cc(Cl)cc23)c1	-10	-1	-8	3	2.3	1	6082
COCc1ccc([C@@H]2C[C@H]3CN(Cc4cccc(Cl)c4)C(=O)[C@]34CCCN24)o1	9	9	9	3	0.8	-14	4046
Cn1c(=O)n(CCc2ccccc2)c2ccccc21	-3	17	6	5	8.0	-9	4009
COC(=O)C1CC(Cl)CN1c1ncc(C(F)(F)F)cc1Cl (configuration not stated)	-8	2	4	5	7.7	-21	4871
O=C1CSC(=S)N1N=C1CCCCCC1	.	20	13	10	7.5	-12	2866
CCC/C(O)=C1\C(=O)CC(C)(C)CC1=NCc1ccccc1	-12	19	12	4	2.6	-4	4731
CC12CCC(=O)N1C(C(=O)OCC(=O)Nc1sccc1C#N)CS2 (configuration not stated)	4	21	9	-6	3.2	-16	4247
CCn1c(SCC(=O)Nc2ccc(C(C)=O)cc2)nnc1C1CC1	8	16	-1	2	-0.2	-13	4939
CCOC(=O)CSc1nc(N)c(C#N)c(-c2ccc(OCC)cc2)c1C#N	-3	10	-2	6	7.1	-7	5542
COC(=O)c1cc(C)sc1NC(=O)C1CC(=O)NN1Cc1ccccc1 (configuration not stated)	8	7	11	-5	3.0	-22	2089
Cc1nn(Cc2ccccc2)c(C)c1NC(=O)CSc1nnc(-c2cc(Cl)ccc2O)n1C	0	3	4	10	1.0	-9	10237
COC(=O)CSc1snnc1-c1ccc(Cl)c(Cl)c1	5	4	1	3	6.0	-8	4566
Cn1nc(-c2ccc(Cl)cc2)cc1NC(=O)CSCC(=O)O	-11	21	-1	5	-0.4	.	.
COc1ccc(Cc2nnc(NC(=O)c3cc(OC)c(OC)c(OC)c3)s2)cc1	-1	1	2	20	2.3	4	2991
CC(C)c1ccc(OCc2cccc(C(=O)NN=Cc3cccnc3)c2)cc1	.	-2	1	-5	7.1	.	.
S=C(Nc1ccc(N2CCOCC2)cc1)Nc1ccc2nc(-c3ccco3)c(-c3ccco3)nc2c1	8	.	.	-13	10	-8	3633

(further entries)
SMILES	BJeLR lethal	Mtb hypoxia inh	Mtb hypoxia inh growth	Sa ugtP lethal	RN4220 kill	PrP 5UTR inh	Autofluor counter
C=CCn1c(=N)n(CC(=O)c2ccc(Cl)cc2)c2ccccc21	-6	-5	7	-1	-4.5	1	3912
CCCCn1c(=N)n(CC(=O)O)c2ccccc21	-6	-4	4	3	2.9	-3	3628
CCOC(=O)Nc1ccc2c(CN3CCN(S(=O)(=O)c4ccccc4F)CC3)cc(=O)oc2c1	.	-15	6	-8	-0.7	-1	5277
CCN(CC)S(=O)(=O)c1ccc(C(=O)NCC(c2ccc(OC)cc2)N2CCOCC2)cc1 (configuration not stated)	-3	-9	-7	5	0.8	-7	3274
CC(OC(=O)c1cc(=O)[nH]c2ccccc12)C(=O)Nc1ccccc1F (configuration not stated)	20	.	.	.	.	-4	4299
Cc1ccc(C(=O)OCC(=O)NC(C)C2CC3CCC2C3)cc1N (configuration not stated)	.	-3	-3	3	11	-17	3854
Cc1c(C(=O)Nc2ccc3c(c2)OCO3)sc2nc(-c3ccccc3)cn12	1	13	11	1	2.0	-30	9656
COCCN1C(=O)CS/C1=C(/C#N)C(=O)NCc1ccco1	4	14	14	5	9.4	2	4500

Laid out differently: entries from further up
Each structure is followed by: BJeLR lethal | Mtb hypoxia inh | Mtb hypoxia inh growth | Sa ugtP lethal | RN4220 kill | PrP 5UTR inh | Autofluor counter
CCC/C(O)=C1\C(=O)CC(C)(C)CC1=NCc1ccccc1
 : -12 | 19 | 12 | 4 | 2.6 | -4 | 4731
CC12CCC(=O)N1C(C(=O)OCC(=O)Nc1sccc1C#N)CS2 (configuration not stated)
 : 4 | 21 | 9 | -6 | 3.2 | -16 | 4247
CCn1c(SCC(=O)Nc2ccc(C(C)=O)cc2)nnc1C1CC1
 : 8 | 16 | -1 | 2 | -0.2 | -13 | 4939
CCOC(=O)CSc1nc(N)c(C#N)c(-c2ccc(OCC)cc2)c1C#N
 : -3 | 10 | -2 | 6 | 7.1 | -7 | 5542
COC(=O)c1cc(C)sc1NC(=O)C1CC(=O)NN1Cc1ccccc1 (configuration not stated)
 : 8 | 7 | 11 | -5 | 3.0 | -22 | 2089
Cc1nn(Cc2ccccc2)c(C)c1NC(=O)CSc1nnc(-c2cc(Cl)ccc2O)n1C
 : 0 | 3 | 4 | 10 | 1.0 | -9 | 10237
COC(=O)CSc1snnc1-c1ccc(Cl)c(Cl)c1
 : 5 | 4 | 1 | 3 | 6.0 | -8 | 4566
Cn1nc(-c2ccc(Cl)cc2)cc1NC(=O)CSCC(=O)O
 : -11 | 21 | -1 | 5 | -0.4 | . | .
COc1ccc(Cc2nnc(NC(=O)c3cc(OC)c(OC)c(OC)c3)s2)cc1
 : -1 | 1 | 2 | 20 | 2.3 | 4 | 2991
CC(C)c1ccc(OCc2cccc(C(=O)NN=Cc3cccnc3)c2)cc1
 : . | -2 | 1 | -5 | 7.1 | . | .
S=C(Nc1ccc(N2CCOCC2)cc1)Nc1ccc2nc(-c3ccco3)c(-c3ccco3)nc2c1
 : 8 | . | . | -13 | 10 | -8 | 3633
C=CCn1c(=N)n(CC(=O)c2ccc(Cl)cc2)c2ccccc21
 : -6 | -5 | 7 | -1 | -4.5 | 1 | 3912
CCCCn1c(=N)n(CC(=O)O)c2ccccc21
 : -6 | -4 | 4 | 3 | 2.9 | -3 | 3628
CCOC(=O)Nc1ccc2c(CN3CCN(S(=O)(=O)c4ccccc4F)CC3)cc(=O)oc2c1
 : . | -15 | 6 | -8 | -0.7 | -1 | 5277
CCN(CC)S(=O)(=O)c1ccc(C(=O)NCC(c2ccc(OC)cc2)N2CCOCC2)cc1 (configuration not stated)
 : -3 | -9 | -7 | 5 | 0.8 | -7 | 3274
CC(OC(=O)c1cc(=O)[nH]c2ccccc12)C(=O)Nc1ccccc1F (configuration not stated)
 : 20 | . | . | . | . | -4 | 4299
Cc1ccc(C(=O)OCC(=O)NC(C)C2CC3CCC2C3)cc1N (configuration not stated)
 : . | -3 | -3 | 3 | 11 | -17 | 3854
Cc1c(C(=O)Nc2ccc3c(c2)OCO3)sc2nc(-c3ccccc3)cn12
 : 1 | 13 | 11 | 1 | 2.0 | -30 | 9656
COCCN1C(=O)CS/C1=C(/C#N)C(=O)NCc1ccco1
 : 4 | 14 | 14 | 5 | 9.4 | 2 | 4500
